Compound activity: PubChem, National Center for Advancing Translational Sciences (NCATS)
D2 potentiator: human D2 receptor positive allosteric modulation | actives 0.23% (n = 360,000) | potentiation, % (concentration not given with the values) | P14416 | DiscoveRx D2 beta-arrestin cells, luminescence, 90 min; 100% = 57 uM dopamine signal | AID 624464; active = potentiation of 50% or more; inconclusive = 30% to 50%; inactive = 30% or less;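 further: compound concentration not given in the record; tested on top of an EC20 dose of dopamine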
Target sequence (P14416 whole entry, looked up): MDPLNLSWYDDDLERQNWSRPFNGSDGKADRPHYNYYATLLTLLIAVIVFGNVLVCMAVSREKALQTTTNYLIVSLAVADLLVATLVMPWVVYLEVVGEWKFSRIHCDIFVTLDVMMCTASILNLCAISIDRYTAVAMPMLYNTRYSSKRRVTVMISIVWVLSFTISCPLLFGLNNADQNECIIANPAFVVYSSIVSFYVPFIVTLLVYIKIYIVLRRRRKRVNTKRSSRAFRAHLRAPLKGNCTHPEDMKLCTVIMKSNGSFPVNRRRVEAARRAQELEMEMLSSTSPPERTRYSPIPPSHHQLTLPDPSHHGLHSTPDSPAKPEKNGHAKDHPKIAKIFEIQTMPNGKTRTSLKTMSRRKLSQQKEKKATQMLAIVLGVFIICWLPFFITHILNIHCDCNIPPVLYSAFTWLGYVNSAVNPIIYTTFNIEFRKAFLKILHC
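PathHunter D2 cells, attached overnight at 37 deg C, received compound in DMSO plus dopamine at EC20 (50 nM final) for 90 min at 37 deg C. Beta-arrestin recruitment was read as luminescence after 1 h with detection reagent at ambient temperature.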
CtBP-E1A blk: CtBP/E1A binding inhibition; AlphaScreen GST-E1A/His-CtBP binding, 1536-well; stronger effect = lower value; control for the full effect not named in the record; activity change, % (concentration not given with the values); actives 0.49% (n = 340,000); in the data active means activity change below about -65%; inconclusive means about -30% to -65%; inactive means above about -30%; further: on the % scale 0 is the no-effect control and ±100 the full control effect
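AlphaScreen with 125 nM GST-E1A and 125 nM His-CtBP (5X stocks) in Tris pH 8.0, 300 mM NaCl, BSA, Tween 20, TCEP. Compounds preincubated 2 h at 37 deg C, then glutathione donor/nickel acceptor beads added for 1 h at 37 deg C in dark.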
Six1-Eya2 inh: Six1/Eya2 interaction inhibition | AlphaScreen GST-Six1/His-Eya2 binding, biochemical; stronger effect = lower value; control for the full effect not named in the record | activity change, % (concentration not given with the values) | actives 0.56% (n = 360,000) | AID 651725; in the data active = activity change below about -65%; inconclusive = about -30% to -65%; inactive = above about -30%; further: on the % scale 0 is the no-effect control and ±100 the full control effect
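AlphaScreen with GST-Six1 and His-Eya2 (5X mix: 250 nM and 500 nM), glutathione donor and nickel acceptor beads; buffer 50 mM Tris pH 8.0, 300 mM NaCl, 1 mM TCEP; 1 h at 37 C in the dark.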
D2 ag: activates the human D2 dopamine receptor; AID 624465; P14416; DiscoveRx PathHunter D2 beta-arrestin, luminescence, 90 min; 100% = 57 uM dopamine signal; activation, % (test concentration not listed); actives 0.084% (n = 360,000); in the data active = activation above about 40%; inconclusive = about 15% to 40%; inactive = below about 15%; further: compound concentration not given in the record; the text of the record calls up to 30% inactive
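Agonist mode: compounds alone added to overnight-plated D2 PathHunter cells for 90 min at 37 C, with 57 uM final dopamine (EC100) defining full response. Beta-arrestin recruitment detected by chemiluminescent reagent, read after 1 h at ambient temperature.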
PINK1 expr mod: PINK1 expression modulation; PINK1 immunofluorescence, high-content cytometry, 24 h; Potency, µM (doses to about 76.6 µM), for inactives: at the top dose activation (PINK1 increase), usual class: activators; actives 0.2% (n = 410,000); active = well fitted activation curve with a large enough effect; inconclusive = small, poorly fitted or top-dose-only effect; inactive = flat fitted curve, though single readings scatter; cell line not stated here;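 further: potency means the concentration at half of the fitted maximal effect; % of control where 0% means no effect; nearly all actives have a fitted effect of over 65% in size; a mitochondrial uncoupler was the plate control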
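Stable cell line treated 24 h with compounds at 5 concentrations (CCCP controls), then fixed and immunostained for PINK1 plus nuclear and cell stains; PINK1 immunofluorescence quantified by laser-scanning microplate cytometry.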
TRPML1 agonist: agonists of human TRPML1 channel; TRPML1-expressing cells, Ca2+ dye fluorescence, FDSS; host cell line not named in the record; reference of the full effect not given here; actives 0.12% (n = 410,000); activation, % (concentration not given with the values); AID 624414; Q9GZU1; in the data active = activation above about 50%; inconclusive = about 30% to 50%; inactive = below about 30%; further: 0% is about no effect; the text of the record puts the active cut at 80%
Target sequence (Q9GZU1 whole entry, looked up): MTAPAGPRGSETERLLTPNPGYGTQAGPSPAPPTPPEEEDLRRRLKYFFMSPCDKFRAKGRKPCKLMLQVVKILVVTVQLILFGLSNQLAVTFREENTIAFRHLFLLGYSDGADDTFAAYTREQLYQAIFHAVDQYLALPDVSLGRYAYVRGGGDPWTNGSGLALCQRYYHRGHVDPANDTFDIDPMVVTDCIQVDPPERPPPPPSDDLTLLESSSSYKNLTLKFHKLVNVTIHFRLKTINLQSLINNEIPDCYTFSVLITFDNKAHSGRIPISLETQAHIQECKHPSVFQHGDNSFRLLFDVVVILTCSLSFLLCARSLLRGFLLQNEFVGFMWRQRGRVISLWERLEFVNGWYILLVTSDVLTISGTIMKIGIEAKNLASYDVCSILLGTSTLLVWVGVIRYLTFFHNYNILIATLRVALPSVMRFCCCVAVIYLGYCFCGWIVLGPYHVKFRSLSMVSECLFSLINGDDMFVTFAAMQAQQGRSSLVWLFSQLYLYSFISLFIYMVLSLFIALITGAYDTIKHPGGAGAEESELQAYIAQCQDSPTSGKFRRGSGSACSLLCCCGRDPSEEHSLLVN
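Calcium fluorescence on an FDSS kinetic reader gave the read-out. Tet-induced TRPML1-DL cells were plated overnight, dye-loaded (Ca8 with quencher, 45-90 min, room temperature, dark), then read 110 s after compound addition, and again 110 s after 4uM final 54-4 (EC80).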
Starred values were filed as active, the others as inactive; ? = inconclusive; nt = not tested or not shown; & = joins results of further samples; [ ] = remark or other dose. Not all compounds are listed; rates above refer to the full screens.

Short keys – A = D2 potentiator; B = CtBP-E1A blk; C = Six1-Eya2 inh; D = D2 ag; E = PINK1 expr mod; F = TRPML1 agonist
compound: CC(C)C[C@H]1CN(CCCC[C@H]2CNC(=O)C(=O)N2CCC2CCCCC2)C(=O)C(=O)N1CCC1CCCCC1
  A = nt	B = 28.0	C = 23.0	D = nt	E = ?	F = 6.4

compound: Cc1[nH]c2ccccc2c1CCNCc1cccnc1
  A = -25.7	B = -1.3	C = -7.0	D = -1.6	E = -0.9%	F = -0.1

compound: C[C@]12CCC(=O)CC1CCC1C2CC[C@]2(C)C(OC(=O)CCC(=O)O)CCC12 (stereo partly specified)
  A = -6.5	B = 1.1	C = -0.3	D = 1.7	E = -0.5%	F = -0.6

compound: Cc1ccc(C(O)(C(=O)NNC(=O)CN2CCN(C)CC2)c2ccc(C)cc2)cc1
  A = -4.0	B = -1.2	C = -2.1	D = -1.5	E = 0.3%	F = -0.5

compound: CNC(C(=O)c1ccccc1)C(OC(C)=O)c1cccc([N+](=O)[O-])c1 (stereo unspecified)
  A = -5.1	B = -3.0	C = 11.1	D = -7.7	E = -2.1%	F = 0.5

compound: CC(=O)c1cccc(OCC(=O)N2CCN(CC(=O)Nc3cccc(F)c3)CC2)c1
  A = -1.2	B = nt	C = -3.4	D = 0.0	E = 2.3%	F = -1.4

compound: O=C1NC2NC(=O)N([N+](=O)[O-])C2N1 (stereo unspecified)
  A = -6.8	B = -3.6	C = -0.5	D = -1.0	E = 0.3%	F = 0.6

compound: COc1ccccc1/C=C1/C(=N/O)C2CCN1CC2
  A = -8.6	B = 3.7	C = -10.2	D = 3.1	E = -1.9%	F = 0.2

compound: COC(=O)C1=C(c2ccccc2OCc2ccccc2)C[C@@H]2CC[C@H]1N2C(=O)NCc1ccc(C(C)(C)C)cc1
  A = -6.5	B = -5.5	C = -12.9	D = 2.3	E = -0.6%	F = 0.6

compound: CCOC(=O)[C@]12Cc3ccccc3[C@H]1N(C(C)C)C(=O)c1cc(OC)ccc12
  A = nt	B = 3.3	C = -3.7	D = nt	E = -1.0%	F = -0.9

compound: O=C(N/N=C/c1c(O)n(CCc2ccc(F)cc2)c(=O)[nH]c1=O)c1ccncc1
  A = 4.6	B = -1.4	C = ?	D = -0.6	E = 4.6%	F = -1.2

compound: COc1ccc(-n2nc(C(=O)NCC(=O)N3CCC4(CC3)OCCO4)c3ccccc3c2=O)c(OC)c1
  A = 0.7	B = 7.6	C = 3.3	D = -0.8	E = 0.3%	F = -0.2

compound: CS(=O)(=O)c1ccc(C2=C(CNC(=O)c3nccs3)[C@H]3CC[C@@H](C2)N3CCOc2ccccc2)cc1
  A = nt	B = -13.5	C = 0.6	D = -3.6	E = 0.3%	F = 0.4

compound: O=C1NC(=O)C(CCc2ccncc2)(Cc2cccc(Cl)c2Cl)C(=O)N1c1ccc(Br)cc1 (stereo unspecified)
  A = 10.0	B = -5.7	C = 1.7	D = 3.1	E = -4.5%	F = 2.8

compound: CO[C@H]1[C@@H](OC)CC(OC2OC(CO)C(O)C(O)C2O)/C(=C\C#N)[C@@H]1O (stereo partly specified)
  A = -9.7	B = 0.6	C = 2.6	D = -2.0	E = -0.7%	F = -0.8

compound: c1cncc(C2CCCCN2)c1 (stereo unspecified)
  A = 1.2	B = -1.2	C = 5.8	D = -2.0	E = -0.7%&1.2%	F = 0.1

compound: c1ccc2nc(OCCN3CC3)ccc2c1
  A = -9.5	B = 0.0	C = -4.7	D = 0.5	E = -1.1%	F = 0.6

compound: COc1ccccc1N(CC(=O)NC1CCCC1)C(=O)c1cnn(C(C)C)c1
  A = -21.8	B = -0.5	C = -2.0	D = -3.7	E = 0.3%	F = -0.9

compound: CCN1C(=O)C(=C2C=C(C)N(Cc3ccco3)C(C)=C2)C(=O)N(CC)C1=S
  A = 3.0	B = 10.6	C = 15.2	D = 2.4	E = 1.7%	F = 0.9

compound: CN1CCc2nc(SCc3cccc(Br)c3)c(C#N)cc2C1
  A = -12.1	B = -0.9	C = 0.2	D = 6.4	E = 4.1%	F = -0.6

compound: Cc1ccsc1C(=O)C1CCCN(Cc2cnc(N3CCCC3)s2)C1 (stereo unspecified)
  A = -5.2	B = -3.4	C = -13.9	D = -1.4	E = 0.7%	F = 1.8

compound: O=[N+]([O-])c1ccccc1CNCCc1ccc(F)cc1
  A = -4.2	B = 7.7	C = -4.7	D = -2.6	E = nt	F = -0.3

compound: COc1cccc(-n2c(CN3CCN(C)CC3)nc3ccc([N+](=O)[O-])cc3c2=O)c1
  A = 5.5	B = -8.7	C = 3.9	D = 3.8	E = 0.6%	F = 0.8

compound: N=C1c2ccccc2CN1NC(=O)C1CC1
  A = 5.1	B = 16.0	C = 11.4	D = 0.4	E = 5.1%	F = 0.9

compound: CN1CCCN(C(=O)COc2ccccc2Br)CC1
  A = -9.4	B = 7.7	C = 4.6	D = 14.3	E = -0.7%	F = 0.5

compound: O=C1CC(=O)N(c2ccc(Cl)cc2)C(=O)N1
  A = -5.1	B = 5.2	C = 8.0	D = 1.7	E = -1.0%	F = -0.1

compound: CCCCCSc1cc(OC)c(CCN(C)C)cc1OC
  A = -34.3	B = ?	C = ?	D = -4.7	E = -3.4%	F = -0.5

compound: CCOP(=O)(C(NC(=O)c1ccccc1Cl)=C(Cl)Cl)c1ccccc1 (stereo unspecified)
  A = -9.7	B = 0.3	C = 6.9	D = -4.5	E = 0.5%	F = 0.2

compound: CCc1ccc2nc(N3CCC(C(=O)N4CCC5(CC4)OCCO5)CC3)sc2c1
  A = -0.8	B = -7.9	C = 0.9	D = -0.1	E = 6.3%	F = 0.2

compound: NC(=O)c1cn(C2CCCCC2)c2ccccc2c1=O
  A = 0.5	B = -2.0	C = -1.2	D = 0.5	E = 4.0%	F = -0.5

compound: CC(C)OCCCNC(=O)c1c(N)n(Cc2cccs2)c2nc3ccccc3nc12
  A = -12.8	B = 40.9	C = 63.4	D = -3.3	E = -2.7%	F = -0.5

compound: COc1ccc2c3c1O[C@H]1C(=O)CC[C@H]4[C@@H](C2)N(C)CC[C@]314
  A = -7.5	B = -14.4	C = -5.9	D = -3.4	E = 1.3%	F = 0.5

compound: O=S(=O)(c1ccc(F)cc1)N1CCCCC1c1cccnc1 (stereo unspecified)
  A = 4.4	B = -0.1	C = 4.5	D = -0.3	E = 1.2%	F = 1.1

compound: COc1ccc2c(c1O)-c1c(OC)c(OC)cc3c1[C@H](C2)N(C)CC3
  A = -29.8	B = -2.7	C = -1.2	D = -7.5	E = -0.7%	F = -0.3

compound: Cn1c(C(=O)N2CCN(c3nc4ccccc4s3)CC2)cc2sccc21
  A = -8.2	B = 3.9	C = -5.6	D = 0.0	E = ?	F = -0.2

compound: CCOP(=S)(OCC)Oc1ccc2c(C)c(Cl)c(=O)oc2c1
  A = 13.1	B = -17.5	C = 48.2	D = 5.3	E = 0.4%&-0.5%	F = -0.3

compound: CCOc1cc(CN2CCN(C(=O)Cc3ccccc3)CC2)ccc1OC
  A = -29.3	B = nt	C = -2.2	D = -0.9	E = 0.1%	F = -0.6

compound: O=C1/C(=C\c2ccc(Cl)cc2Cl)N2CCC1CC2
  A = -54.7	B = 9.1	C = -8.0	D = 3.1	E = 10.6%	F = 2.5

compound: CCOc1ccccc1-n1c(O)c(C=NCCCN(CC)CC)c(=O)[nH]c1=O
  A = 7.8	B = 5.1	C = 5.9	D = 1.3	E = 2.9%	F = -0.7

compound: CCN1CCN(c2cc(N3CCCC3)c(F)cc2[N+](=O)[O-])CC1
  A = -39.2	B = 22.4	C = -17.2	D = -12.0	E = 1.8%	F = 0.2

compound: COC(=O)C1=C(c2ccc(OCc3ccccc3)cc2)C[C@@H]2CC[C@H]1N2C(=O)NCc1ccc([N+](=O)[O-])cc1
  A = -6.5	B = 2.9	C = -10.5	D = 1.8	E = 1.4%	F = 0.2

compound: CCOC(=O)C1CCN(/C=C2/C(=O)NC(=S)N(c3cccc(OC)c3)C2=O)CC1
  A = -6.5	B = nt	C = 5.4	D = -1.3	E = 1.2%	F = 0.1

compound: O=C(C1CCCN(c2nnc(-n3cccc3)s2)C1)N1CCC2(CC1)OCCO2 (stereo unspecified)
  A = 15.7	B = -1.7	C = -3.8	D = -3.7	E = 4.1%	F = -0.8

compound: CC(=O)N(C1=NCCCS1)c1ccccc1F
  A = -12.3	B = 17.0	C = 4.3	D = -2.5	E = 7.8%[38.3 µM]	F = -0.8

compound: CN1CCN(c2ccc([N+](=O)[O-])cc2Cl)CC1
  A = -15.8	B = -9.6	C = -6.3	D = -3.2	E = -2.0%	F = 0.6

compound: COC(=O)N(C)c1ccc(C(O)(C(=O)OC)C(F)(F)F)cc1 (stereo unspecified)
  A = -4.0	B = nt	C = 1.6	D = -2.2	E = 0.4%	F = 0.3

compound: O=C1NC(=O)C(=Cc2cc(Cl)ccc2OCc2ccc(C(=O)O)cc2)C(=O)N1
  A = -1.2	B = -1.8	C = -1.0	D = -5.5	E = 5.5%	F = -0.2

compound: C(#CCN1CCCC1)CN1CCCC1
  A = -2.2	B = 2.4	C = 6.2	D = -1.6	E = 0.5%	F = -0.2

compound: COc1ccc(CN2CCN(C(=O)Cc3ccccc3)CC2)c(OC)c1
  A = -29.0	B = 2.7	C = -0.8	D = -0.1	E = -1.8%	F = -0.6

compound: COc1ccc(C2=NCC(=O)N(CC(=O)NCc3ccco3)c3sc4c(c32)CCCC4)cc1
  A = -2.4	B = ?	C = -29.1	D = 2.0	E = -8.6%[38.3 µM]	F = -0.5

compound: CCCOP(=O)(OCCC)C(NC(=O)c1ccccc1)=C(Cl)Cl
  A = 14.3	B = 7.9	C = 2.7	D = 4.6	E = -1.7%	F = 1.7

compound: CCCC(C)C1(CC)C(=O)NC(=Nc2ccc(F)cc2)NC1=O (stereo unspecified)
  A = -10.3	B = -0.5	C = 4.6	D = 0.5	E = ?	F = 1.6

compound: Cc1ccc(Cn2nc(C(=O)Nc3ccc(Br)cc3)cc2C)cc1
  A = 3.6	B = -0.4	C = 5.5	D = 7.8	E = 1.8%	F = 5.1

compound: COC(=O)C(O)(c1ccc2c(c1)CCCN2)C(F)(F)F (stereo unspecified)
  A = -15.1	B = -9.3	C = -8.9	D = -1.7	E = nt	F = 0.3

compound: COc1ccc(CCNCc2sccc2C)cc1
  A = -5.4	B = 6.6	C = -0.6	D = -2.3	E = 0.8%	F = 1.1
